# Assay outcomes from PubChem BioAssay.
# Vero viability: viability loss in Vero cells – cytotoxicity control for Vif-APOBEC3G degradation inhibitor project, dose response (AID 1117358) | Vero viability, CellTiter-Glo ATP luminescence, 72 h; reference of the scale not given here | viability, % at the top dose, mostly 40 µM; hits show CC50 in µM | 2,300 compounds, 7% hits;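 active = viability down to 80% or less at some dose; inactive = above 80% at all doses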
# * = called active by the depositor. Not all compounds are listed. The share of hits here may be higher or lower than overall.
SMILES,Vero viability
COc1ccc2c(c1)CC1(CN2C)C(=O)NC(=O)N(c2ccc(C)cc2)C1=O (configuration not stated),88%
O=C(c1ccc2nc(-c3ccco3)c(-c3ccco3)nc2c1)N1CCC2(CC1)OCCO2,98%
CCOc1cc(C(=O)N2CCC3(CC2)OCCO3)cc(OCC)c1OCC,92%
CCCCN1C(=O)/C(=C/C=C/c2ccco2)C(=O)NC1=S,98%
CCCCOc1ccc(CN2CCN(CC)CC2)cc1,92%
COc1ccc(-n2c(=O)[nH]c3ccccc3c2=O)c(OC)c1,88%
Cc1cc(C)c(S(=O)(=O)NCC2CCC(C(=O)N3CCC4(CC3)OCCO4)CC2)c(C)c1 (configuration not stated),102%
CC(C)N1C(=O)/C(=C/C=C/c2ccco2)C(=O)N(Cc2ccco2)C1=O,97%
Nc1ccc(N2CCN(Cc3ccccc3Cl)CC2)c(Cl)c1,90%
O=C1C2CCCN2C(c2ccc(Cl)cc2)N1c1ccccn1 (configuration not stated),99%
CC(C)N(CC(O)c1cccc([N+](=O)[O-])c1)C(C)C (configuration not stated),101%
CCCCn1c(O)c(C(CC)=NCCN2CCCCC2)c(=O)[nH]c1=O,90%
O=C(C1CCCO1)N1CCC2(CC1)OCCO2 (configuration not stated),80%

# Part of the list above in order of molar mass, lowest first.
SMILES,Vero viability
COc1ccc(-n2c(=O)[nH]c3ccccc3c2=O)c(OC)c1,88%
CCCCN1C(=O)/C(=C/C=C/c2ccco2)C(=O)NC1=S,98%
Nc1ccc(N2CCN(Cc3ccccc3Cl)CC2)c(Cl)c1,90%
CC(C)N1C(=O)/C(=C/C=C/c2ccco2)C(=O)N(Cc2ccco2)C1=O,97%
COc1ccc2c(c1)CC1(CN2C)C(=O)NC(=O)N(c2ccc(C)cc2)C1=O (configuration not stated),88%

# An excerpt of these results, with bars between the fields.
structure | Vero viability
CC(C)N1C(=O)/C(=C/C=C/c2ccco2)C(=O)N(Cc2ccco2)C1=O | 97%
CCOc1cc(C(=O)N2CCC3(CC2)OCCO3)cc(OCC)c1OCC | 92%
